# NS1 inh = blocks influenza NS1 protein function. S. cerevisiae slowed by influenza A NS1, growth recovery by OD600. Potency, µM (highest dose often 46.1 µM), inactives show top-dose activity, positive = more growth. hit rate 0.4% among 270,000. AID 2326; note: actives are rising curves; nearly all actives have a fitted effect of over 50% in size
#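 Read-out: OD600 growth recovery of NS1-expressing budding yeast. Cells grown overnight at 30C in -URA glucose medium, washed, resuspended and diluted 1:100 in 2% galactose assay medium, pH 6.0. Same strain lacking NS1 served as positive control.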
# Cruzain inh Det = cruzain (T. cruzi) inhibition with detergent | P25779 | purified cruzain, Z-FR-AMC fluorescence, 0.01% Triton | Potency, µM, for inactives: max response, negative = inhibition, actives largely listed as inhibitors | hit rate 0.43% among 200,000; active = well fitted curve in the direction sought with a large enough effect; inconclusive = small, poorly fitted or top-dose-only effect, or another doubt; inactive = no such curve, though single readings can be large; an effect the other way counts as inactive or inconclusive;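 note: plate controls were neutral wells for no effect and buffer without enzyme for full effect; nearly all actives have a fitted effect of over 40% in size; top concentration of the series not given in the record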
# Target sequence (P25779 123-467 limits assumed): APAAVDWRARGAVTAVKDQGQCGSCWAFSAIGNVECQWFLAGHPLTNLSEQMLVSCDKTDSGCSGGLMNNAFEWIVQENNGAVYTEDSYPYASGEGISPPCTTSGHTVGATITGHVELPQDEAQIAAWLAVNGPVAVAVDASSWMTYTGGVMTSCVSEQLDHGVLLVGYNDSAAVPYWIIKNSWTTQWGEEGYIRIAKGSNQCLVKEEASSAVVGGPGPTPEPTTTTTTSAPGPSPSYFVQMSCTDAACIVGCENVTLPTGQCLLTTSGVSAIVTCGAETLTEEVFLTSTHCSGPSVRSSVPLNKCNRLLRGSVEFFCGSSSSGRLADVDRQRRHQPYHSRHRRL
#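 Steps: dispense cruzain (1.5 nM final) in acetate buffer pH 5.5 with DTT and 0.01% Triton X-100; pin-transfer compounds; incubate 15 min RT; add Z-FR-AMC (2 uM final); read fluorescence every 30 s, using the 60 s intensity change.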
# 2A StopGo = FMDV 2A StopGo reporter, luciferase signal | human cells with a luciferase reporter of 2A StopGo recoding; control for the full effect not named in the record | hit rate 1.2% among 410,000 | Potency, µM (titrated, usually from 57.9 µM), inactives show at the top dose signal change, negative = less light | AID 1159524; active = well fitted falling curve with a large enough effect; inconclusive = small, poorly fitted or top-dose-only effect; inactive = no such curve, though single readings can be large or run the other way; tested in HEK293T cells; note: % is set by controls: 0 for no effect and ±100 for the full control effect; nearly all actives have a fitted effect of over 45% in size; luciferase light after 4 h
# Cruzain inh noDet = inhibitors of Trypanosoma cruzi cruzain without detergent; P25779; purified cruzain, Z-FR-AMC fluorescence, no detergent; Potency, µM, for the others: max response, negative = inhibition, hits mostly inhibitors; hit rate 2.3% among 200,000; active = well fitted curve in the direction sought with a large enough effect; inconclusive = small, poorly fitted or top-dose-only effect, or another doubt; inactive = no such curve, though single readings can be large; an effect the other way counts as inactive or inconclusive;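 note: plate controls were enzyme without inhibitor for no effect and buffer without enzyme for full effect; nearly all actives have a fitted effect of over 40% in size; top concentration of the series not given in the record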
#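 Purified cruzain at 1.5 nM, pre-incubated 15 min with compound at room temperature in 100 mM sodium acetate pH 5.5, 5 mM DTT, 0.00005% Triton X-100. Reaction started with 2 uM Z-FR-AMC; AMC fluorescence increase over 60 s gives rate.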
# MARV entry inh = inhibitors of Marburg virus binding or cell entry. Potency, µM (highest dose often 37.8 µM), for the others: top-dose activity change, negative = inhibition, most hits filed as inhibitors. hit rate 1.8% among 300,000. Marburg virus pseudotyped entry inhibition, cell reporter; control for the full effect not named in the record; about a third of the inactives were read at about 46 µM; active = well fitted inhibition curve with a large enough effect; inconclusive = small, poorly fitted or top-dose-only effect, or effect the other way; inactive = flat fitted curve, though single readings scatter; tested in HEK293 cells; about a fifth of its hits are not listed in these tables; note: % is set by controls: 0 for no effect and ±100 for the full control effect; luciferase read-out
# SARS PLP yeast = inhibitors of SARS-CoV papain-like protease in yeast; S. cerevisiae expressing SARS-CoV PLpro, growth rescue; control for the full effect not named in the record; Potency, µM (series often up to 32.9 µM), for inactives: top-dose activity, positive = growth rescue; hit rate 0.19% among 330,000; AID 485353; note: 0% is about no effect; nearly all actives have a fitted effect of over 55% in size; growth read by luminescence after 48 h
# LASV entry inh = blocks Lassa virus binding to or entry into cells; Lassa virus pseudotype entry inhibition, cell reporter; control for the full effect not named in the record; Potency, µM (top dose mostly 37.9 µM), for the others: at the top dose activity change, negative = inhibition, hits mostly inhibitors; hit rate 1.2% among 300,000; active means well fitted inhibition curve with a large enough effect; inconclusive means small, poorly fitted or top-dose-only effect, or effect the other way; inactive means flat fitted curve, though single readings scatter; tested in HEK293 cells; note: % is set by controls: 0 for no effect and ±100 for the full control effect; nearly all actives have a fitted effect of over 50% in size; luciferase read-out
# RE007 growth inh = less growth of the S. pombe RE007 Vpr strain; S. pombe RE007 Vpr strain, BacTiter-Glo ATP luminescence, 24 h; control for the full effect not named in the record; Potency, µM (series often up to 92.2 µM), for inactives: at the top dose activity change, negative = less growth; hit rate 0.21% among 360,000; active = well fitted falling curve with a large enough effect; inconclusive = small, poorly fitted or top-dose-only effect; inactive = no such curve, though single readings can be large or run the other way;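 note: % is set by controls: 0 for no effect and ±100 for the full control effect; nearly all actives have a fitted effect of over 50% in size; the assay follows cell death caused by Vpr and the record does not say whether a fall means rescue or toxicity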
#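 Fission yeast strain RE007, carrying one chromosomally integrated HIV-1 vpr copy, was seeded at OD 0.01 in PMG+AL medium with 23 nL pinned compound. After 24 h at 30 °C and 99% humidity, viability was read by BacTiter-Glo luminescence.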
# Numbers without * were called inactive; ? = inconclusive; . = not tested or not shown; & = joins results of further samples; [ ] = dose if it differs, or a comment. Unless noted, calls come from the whole dose curve; as a rule, active means well fitted rising curve with a large enough effect; inconclusive means small, poorly fitted or top-dose-only effect; inactive means no such curve, though single readings can be large or run the other way. Potency is the fitted concentration of half-maximal effect. An unsorted share of the library. Share with any hit: about 4.7%.
SMILES,NS1 inh,Cruzain inh Det,2A StopGo,Cruzain inh noDet,MARV entry inh,SARS PLP yeast,LASV entry inh,RE007 growth inh
O=C(Nc1ccc(NC(=O)c2ccco2)c(Cl)c1)c1cccc([N+](=O)[O-])c1,0%,.,4%,.,-17%[46.1 µM],-2%,-31%,-18%
Cc1ccc(-n2ncc3c(NCCCn4ccnc4)ncnc32)cc1,.,0.0%,14%,-1%,.,.,?,.
Cc1ccc(NC(=O)CS(=O)c2ccccc2N)c(C)c1 (configuration not stated),0%,.,39%[activator],.,?,2%,-7%,8%
C=CCNC(=O)/C(=C/c1cn(-c2ccccc2)nc1-c1cccc([N+](=O)[O-])c1)NC(=O)c1ccccc1,11%,-6.0%,-15%,-16%,-16%,9%,-12%,13%
CCCOc1ccc(NC(=O)CC2C(=O)N(CC)C(=S)N2Cc2cccs2)cc1 (configuration not stated),11%,-8.0%,-20%,13%,?,-3%,5%,-4%
COc1cccc(-c2nc(N3CCN(Cc4ccccc4)CC3)c3ccccc3n2)c1O,2%&1%,-12%,-16%,-4%,3%,15%&0%,.,-6%
COC(=O)CCCC1=CC2=C(c3ccccc3)C(=O)C(C)(OC(=O)C3CCCC3)C(=O)C2=CN1C1CCCCC1 (configuration not stated),13%,.,-14%,.,?,2%,.,1%
Cc1ccc(NC(=O)N2CCC(C(=O)NCCC3=CCCCC3)CC2)cc1,-3%,-1.4%,14%,?,-22%,6%,?,6%
Cc1onc(-c2ccccc2Cl)c1C(=O)Nc1cccnc1,-1%,2.0%,-14%,4%,16%,-2%,21%,4%
O=C(COC(=O)c1ccc(O)cc1O)Nc1ccc(Cl)cn1,-7%,.,4%,.,5%[46.1 µM],-5%,-8%[46.1 µM],-1%
CCCCC1=C([O-])C2N=CC=CC2=[N+](c2ccccn2)C1=O (configuration not stated),10%,-4.8%,0%,-12%,-3%,9%,3%,-19%
CCn1c(=O)c2sccc2n(Cc2cccc(C)c2)c1=O,-11%,.,-10%,.,3%[46.1 µM],-2%,1%[46.1 µM],23%
CCOC(=O)C1=C(COC(=O)c2ccc(C)s2)NC(=O)NC1C (configuration not stated),.,.,-23%,.,1%[46.1 µM],-3%,14%,13%
O=C(c1ccco1)N1CCN(S(=O)(=O)c2ccccc2[N+](=O)[O-])CC1,-2%,.,1%,.,-5%[46.1 µM],0%,15%,5%
O=C(CCl)Nc1cc(S(=O)(=O)N2CCCCCC2)ccc1Cl,-28%,-5.8%,?,-1%,?,8%,?,-6%
Cc1cc(C)cc(N(CC(=O)NCC2CCCO2)C(=O)CN2C(=O)COc3ccccc32)c1 (configuration not stated),-5%,-0.7%,5%,13%,-21%,11%,-22%,-5%
Cc1ccc(S(=O)(=O)NN2C(=O)/C(=C/c3cccn3C)SC2=S)cc1,-16%,-15%,.,-27%,3%,-79%,0%,.
COc1cc(C(=O)N2CCc3ccccc32)c([N+](=O)[O-])cc1OC,8%,.,19%,.,-1%[46.1 µM],5%,2%[46.1 µM],-2%
COc1ccc(CC(=O)c2ccc(OC)c(OC)c2)cc1,-7%,-2.7%,22%,1%,-7%,12%,0%,-23%
Cc1ccc(OCC(=O)c2cc(C)n(C3CC3)c2C)c([N+](=O)[O-])n1,-2%,-5.2%,23%,14%,19%,?,-5%,-2%
COc1ccc(C)cc1NC(=O)CSc1nc(SC)ns1,-21%,-7.4%,-2%,-13%,-14%,-7%,-4%,-18%
CCOc1ccccc1NC(=O)c1ccccc1NC(=O)c1ccco1,9%,.,-3%,.,-1%[46.1 µM],3%,-22%,10%
COc1cccc(-n2ccnc2SCC(=O)Nc2ccc(Cl)c(Cl)c2)c1,.,-6.9%,-7%,4%,.,.,0%[46.1 µM],.
COc1cccc(NC(=O)Cn2c(=O)n(-c3ccccc3)c(=O)c3c2c2cc(OC)ccc2n3C)c1,.,11%,1%,11%,.,.,?,.
Cc1cc(OCC(=O)NCCN2CCOCC2)cc(C)c1Cl,-6%,.,0%,.,?,0%,-24%[46.1 µM],3%
Cc1[nH]c(=O)[nH]c(=O)c1S(=O)(=O)Nc1cccc(C(F)(F)F)c1,5%,.,-15%,.,.,2%,.,-2%
COCc1cc(=O)[nH]c(SCC(=O)Nc2ccccc2)n1,7%,2.5%,3%,-8%,-2%,-8%,-1%,6%
Cn1c(Cc2ccccc2)nnc1SCc1ccc(C(=O)O)cc1,-1%,-1.3%,16%,-4%,?,-6%,-9%,-19%
O=C(c1cc(=O)[nH]c2ccccc12)N1CCN(S(=O)(=O)c2ccc3ccccc3c2)CC1,2%,-2.2%,-30%,9%,-26%,0%,-20%,10%
O=C(COC(=O)c1ccccc1Cl)NCc1ccco1,.,.,10%,.,.,2%,.,-3%
CCOc1cccc(OCCOc2ccccc2[N+](=O)[O-])c1,-25%,-5.6%,7%,5%,?,0%,1%,-26%
Cc1ccc(NC(=O)c2cc(NC(=O)C3CC=CCC3C(=O)O)ccc2N2CCOCC2)cc1Cl (configuration not stated),16%,-5.0%,0%,?,-13%,-5%,-7%,-20%
CC(=O)Nc1ccc(NC(=O)[C@@H]2CCCC[C@@H]2C(=O)O)cc1,.,.,-9%,.,-1%,2%,8%,-6%
Cc1ccc(S(=O)(=O)NCC(=O)N2CCN(S(=O)(=O)c3ccc(Cl)cc3)CC2)cc1C,.,.,2%,.,-3%,-1%,-1%[46.1 µM],0%
COc1ccc(C(C#N)(CCC#N)CCC#N)cc1OC,0%,4.1%,-1%,2%,-4%,1%,1%,0%
Cc1ccccc1OCCSc1nnc(-c2cccs2)o1,.,-5.9%,-1%,-12%,?,.,?,.
Cc1cc(C)cc(OCC(=O)NCC(c2ccc(Cl)cc2)N2CCCCC2)c1 (configuration not stated),.,-0.7%,?,0%,?,.,?,.
COC(C[C@H]1O[C@H]1C(=O)COCc1ccccc1)OC,3%,.,-9%,.,.,2%,.,8%
CCc1ccc2oc(C(=O)Nc3ccccc3C(=O)OC)cc(=O)c2c1,.,-1.7%,-20%,-3%,20%[46.1 µM],.,1%[46.1 µM],.
COc1ccc(/C=C/C(=O)OCc2cc(=O)n3c(n2)sc2ccccc23)cc1,8%,-4.0%,-10%,?,3%,-13%,2%,19%
Cc1cc(C)cc(N=c2c([N+](=O)[O-])nn(-c3ccc4c(c3)OCCO4)n2O)c1,.,.,-22%,.,?,-1%,?,3%
COc1ccc2cc(C(=O)Nc3ccccc3)sc(=O)c2c1OC,-9%,-4.3%,23%,-6%,11%,-2%,2%,.
O=C1Cc2cc(S(=O)(=O)Nc3cccc([N+](=O)[O-])c3)cc3c2N1CCC3,28%,.,6%,.,.,7%,.,4%
O=C(CCc1nc2ccccc2c(=O)[nH]1)N1CCN(C/C=C/c2ccccc2)CC1,1%,4.1%,20µM*,3%,-19%,0%,0%,-2%
O=C(NCC1CCCO1)c1csc2c1CCCC2 (configuration not stated),-3%,0.9%,.,-8%,19%,-1%,15%,-6%
Cc1cc(Br)c(NC(=O)COC(=O)CSc2nnc(-c3ccc(Cl)cc3)o2)c(Br)c1,17%,-3.7%,-12%,?,?,8%,5%,18%
CNc1ccc(OC(F)F)cc1C(=O)c1ccccc1,-58%,-5.6%,.,1%,6%,-4%,1%,-10%
CC(OC(=O)CSc1ccc([N+](=O)[O-])cc1)C(=O)NCc1ccccc1 (configuration not stated),.,.,-7%,.,-22%[46.1 µM],-3%,4%,?
CC(C)c1ccccc1OCC(=O)Nc1ccccc1C(=O)N1CCOCC1,8%,.,-15%,.,-8%,0%,-18%,-21%
COC(=O)c1ccccc1C(=O)N1CCOCCN(C(=O)c2ccccc2C(=O)OC)CCOCC1,2%,1.3%,-19%,2%,18%,19%,-2%,0%
Cc1ccc(NC(=O)c2ccc3ccccc3n2)nc1,17%,-13%,6%,-10%,23%,-20%,?,?
CC(=O)Nc1ccc(NC(=O)/C(=C/c2ccco2)NC(=O)c2ccccc2)cc1,8%,.,-15%,.,7%[46.1 µM],-1%,-1%,11%
O=C(CN(CC1CCCO1)C(=O)CNS(=O)(=O)c1ccc(F)cc1)NCc1ccccc1 (configuration not stated),-7%,.,14%,.,-1%[46.1 µM],0%,6%,-15%
